# Screening results from PubChem BioAssay.
# LASV entry inh – qHTS for Inhibitors of binding or entry into cells for Lassa Virus. Lassa virus pseudotype entry inhibition, cell reporter; control for the full effect not named in the record. Potency, µM (highest dose often 37.9 µM), inactives show at the top dose activity change, negative = inhibition, usual class: inhibitors. hit rate 1.2% among 300,000. AID 540256, 2011; active means well fitted inhibition curve with a large enough effect; inconclusive means small, poorly fitted or top-dose-only effect, or effect the other way; inactive means flat fitted curve, though single readings scatter; tested in HEK293 cells; note: % is set by controls: 0 for no effect and ±100 for the full control effect; nearly all actives have a fitted effect of over 50% in size; luciferase read-out
# SARS PLP yeast – qHTS of Yeast-based Assay for SARS-CoV PLP; hit rate 0.19% among 330,000; AID 485353, 2010; S. cerevisiae expressing SARS-CoV PLpro, growth rescue; control for the full effect not named in the record; Potency, µM (titrated, usually from 32.9 µM), without a hit: at the highest dose activity, positive = growth rescue; active means well fitted rising curve with a large enough effect; inconclusive means small, poorly fitted or top-dose-only effect; inactive means no such curve, though single readings can be large or run the other way; note: 0% is about no effect; nearly all actives have a fitted effect of over 55% in size; growth read by luminescence after 48 h
# Cruzain Triton – qHTS Assay for Promiscuous and Specific Inhibitors of Cruzain (with detergent); Cruzipain (Trypanosoma cruzi), P25779; purified cruzain, Z-FR-AMC fluorescence, 0.01% Triton; Potency, µM, inactives show max response, negative = inhibition, usual class: inhibitors; hit rate 0.43% among 200,000;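 note: plate controls were neutral wells for no effect and buffer without enzyme for full effect; nearly all actives have a fitted effect of over 40% in size; top concentration of the series not given in the record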
# Target sequence (P25779 123-467 limits assumed): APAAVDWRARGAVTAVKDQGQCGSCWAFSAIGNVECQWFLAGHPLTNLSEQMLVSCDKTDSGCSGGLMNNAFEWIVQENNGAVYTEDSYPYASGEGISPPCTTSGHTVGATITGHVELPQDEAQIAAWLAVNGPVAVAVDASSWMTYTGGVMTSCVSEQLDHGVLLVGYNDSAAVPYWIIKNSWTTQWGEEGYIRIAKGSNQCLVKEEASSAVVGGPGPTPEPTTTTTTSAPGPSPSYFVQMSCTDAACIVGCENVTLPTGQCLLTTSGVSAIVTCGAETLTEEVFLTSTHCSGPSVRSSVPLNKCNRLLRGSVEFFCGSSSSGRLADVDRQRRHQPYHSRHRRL
#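 Cruzain (1.5 nM) preincubated 15 min at RT with compound in 100 mM sodium acetate pH 5.5, 5 mM DTT, 0.01% Triton X-100. Reaction started with 2 uM Z-FR-AMC; AMC fluorescence (ex 360/em 450 nm) change over 60 s gave rate.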
# RE007 growth inh – qHTS Assay for Inhibitors of the HIV-1 protein Vpr | hit rate 0.21% among 360,000 | S. pombe RE007 Vpr strain, BacTiter-Glo ATP luminescence, 24 h; control for the full effect not named in the record | Potency, µM (series often up to 92.2 µM), for the others: at the highest dose activity change, negative = less growth; active = well fitted falling curve with a large enough effect; inconclusive = small, poorly fitted or top-dose-only effect; inactive = no such curve, though single readings can be large or run the other way;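 note: % is set by controls: 0 for no effect and ±100 for the full control effect; nearly all actives have a fitted effect of over 50% in size; the assay follows cell death caused by Vpr and the record does not say whether a fall means rescue or toxicity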
#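 Fission yeast RE007 carrying one integrated HIV-1 vpr copy, seeded at OD 0.01 in PMG+AL medium with 23 nL pinned compound. Grown 24 h at 30 degrees; viability read by BacTiter-Glo luminescence after 5 min.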
# NS1 inh – qHTS Assay for Inhibitors of Influenza NS1 Protein Function | Potency, µM (series often up to 46.1 µM), without a hit: at the highest dose activity, positive = more growth | hit rate 0.4% among 270,000 | S. cerevisiae slowed by influenza A NS1, growth recovery by OD600; active means well fitted rising curve with a large enough effect; inconclusive means small, poorly fitted or top-dose-only effect; inactive means no such curve, though single readings can be large or run the other way; note: nearly all actives have a fitted effect of over 50% in size
#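 Compounds were scored for reversing the slow growth caused by influenza A NS1 in S. cerevisiae, measured by optical density at 600 nm. Assay medium contained 2% galactose at pH 6.0; NS1-free yeast of the same strain were the positive control.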
# Cruzain noTriton – qHTS Assay for Promiscuous and Specific Inhibitors of Cruzain (without detergent); Potency, µM, inactives show max response, negative = inhibition, most hits filed as inhibitors; purified cruzain, Z-FR-AMC fluorescence, no detergent; hit rate 2.3% among 200,000; Cruzipain (Trypanosoma cruzi), P25779;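 note: plate controls were enzyme without inhibitor for no effect and buffer without enzyme for full effect; nearly all actives have a fitted effect of over 40% in size; top concentration of the series not given in the record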
#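 Detergent-free condition (0.00005% Triton X-100) in acetate buffer pH 5.5 with DTT. 1.5 nM enzyme and compound were pre-mixed 15 min, then 2 uM Z-FR-AMC substrate added; reaction progress from fluorescence change between first and third reads (60 s).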
# 2A StopGo – High Throughput Screening for Foot and Mouth Disease Virus Antivirals. human cells with a luciferase reporter of 2A StopGo recoding; control for the full effect not named in the record. Potency, µM (series often up to 57.9 µM), inactives show at the highest dose signal change, negative = less light. hit rate 1.2% among 410,000. AID 1159524, 2015; active = well fitted falling curve with a large enough effect; inconclusive = small, poorly fitted or top-dose-only effect; inactive = no such curve, though single readings can be large or run the other way; tested in HEK293T cells; note: % is set by controls: 0 for no effect and ±100 for the full control effect; nearly all actives have a fitted effect of over 45% in size; luciferase light after 4 h
# MARV entry inh – qHTS for inhibitors of binding or entry into cells for Marburg Virus; hit rate 1.8% among 300,000; Marburg virus pseudotyped entry inhibition, cell reporter; control for the full effect not named in the record; about a third of the inactives were read at about 46 µM; Potency, µM (series often up to 37.8 µM), for the others: top-dose activity change, negative = inhibition, usual class: inhibitors; active = well fitted inhibition curve with a large enough effect; inconclusive = small, poorly fitted or top-dose-only effect, or effect the other way; inactive = flat fitted curve, though single readings scatter; tested in HEK293 cells; about a fifth of its hits are not listed in these tables; note: % is set by controls: 0 for no effect and ±100 for the full control effect; luciferase read-out
# The depositor's hits bear a star; ? = inconclusive; . = no result given; & = joins results of further samples; [ ] = remark or other dose. Unless noted, calls come from the whole dose curve; as a rule, active = well fitted curve in the direction sought with a large enough effect; inconclusive = small, poorly fitted or top-dose-only effect, or another doubt; inactive = no such curve, though single readings can be large; an effect the other way counts as inactive or inconclusive. Potency is the fitted concentration of half-maximal effect.
# Start of the data: the first 11 compounds as a preview:
SMILES,LASV entry inh,SARS PLP yeast,Cruzain Triton,RE007 growth inh,NS1 inh,Cruzain noTriton,2A StopGo,MARV entry inh
COc1ccc(-c2nc(SC)n(C)c(=O)c2C#N)cc1OC,3%,5%,-8.0%,0%,-2%,12%,-2%,-11%[46.1 µM]
c1cc2ccc3ccc(-n4cnnn4)c4ccc(c1)c2c34,-21%,6%,-6.8%,-3%,-8%,-23%,-13%,4%
O=C1Cn2c(nc3ccccc32)N1c1ccccc1F,-4%,-2%,7.4%,-13%,0%,4%,.,14%
Cc1nn(C(=O)COc2ccccc2)c(C)c1Sc1ccccc1,-4%[46.1 µM],.,1.0%,.,.,7%,-10%,-24%[46.1 µM]
N/C(=N\OC(=O)CCCOc1ccc(Cl)cc1Cl)c1ccncc1,1%,-12%,.,-6%,-41%,.,-2%,11%[46.1 µM]
CCOC(=O)c1cccc(Nc2ncnc3ccc(C)cc23)c1,-17%,-16%,-3.7%,-11%,-70%,2%,?,?
Cc1ccc(Nc2c(-c3ccc(N(C)C)cc3)nc3ncccn23)cc1,-3%,-1%,.,0%,6%,.,8%,3%[46.1 µM]
CCN(CC)S(=O)(=O)c1ccc(N2CCOCC2)c(NC(=O)c2cc(-c3ccccn3)nc3ccccc23)c1,?,-1%,.,-1%,.,.,?,?
COc1ccccc1OCCn1cc(C(=O)c2ccco2)c2ccccc21,-21%,-5%,-4.1%,4%,-63%,-1%,25µM*,?
COc1ccc(-c2nc(C(=O)NCC3CCCO3)cc3c2[nH]c2ccccc23)cc1 (stereo not given),.,0%,.,0%,-46%,.,?,.
Cc1ccc(C(=O)CCNc2ccc(Br)cc2)o1,6%,.,-0.4%,-29%,-7%,-9%,21%,28%

# All compounds of this part (from the top)
SMILES,LASV entry inh,SARS PLP yeast,Cruzain Triton,RE007 growth inh,NS1 inh,Cruzain noTriton,2A StopGo,MARV entry inh
COc1ccc(-c2nc(SC)n(C)c(=O)c2C#N)cc1OC,3%,5%,-8.0%,0%,-2%,12%,-2%,-11%[46.1 µM]
c1cc2ccc3ccc(-n4cnnn4)c4ccc(c1)c2c34,-21%,6%,-6.8%,-3%,-8%,-23%,-13%,4%
O=C1Cn2c(nc3ccccc32)N1c1ccccc1F,-4%,-2%,7.4%,-13%,0%,4%,.,14%
Cc1nn(C(=O)COc2ccccc2)c(C)c1Sc1ccccc1,-4%[46.1 µM],.,1.0%,.,.,7%,-10%,-24%[46.1 µM]
N/C(=N\OC(=O)CCCOc1ccc(Cl)cc1Cl)c1ccncc1,1%,-12%,.,-6%,-41%,.,-2%,11%[46.1 µM]
CCOC(=O)c1cccc(Nc2ncnc3ccc(C)cc23)c1,-17%,-16%,-3.7%,-11%,-70%,2%,?,?
Cc1ccc(Nc2c(-c3ccc(N(C)C)cc3)nc3ncccn23)cc1,-3%,-1%,.,0%,6%,.,8%,3%[46.1 µM]
CCN(CC)S(=O)(=O)c1ccc(N2CCOCC2)c(NC(=O)c2cc(-c3ccccn3)nc3ccccc23)c1,?,-1%,.,-1%,.,.,?,?
COc1ccccc1OCCn1cc(C(=O)c2ccco2)c2ccccc21,-21%,-5%,-4.1%,4%,-63%,-1%,25µM*,?
COc1ccc(-c2nc(C(=O)NCC3CCCO3)cc3c2[nH]c2ccccc23)cc1 (stereo not given),.,0%,.,0%,-46%,.,?,.
Cc1ccc(C(=O)CCNc2ccc(Br)cc2)o1,6%,.,-0.4%,-29%,-7%,-9%,21%,28%
Cc1cccc(N(CC(O)Cn2c3ccccc3c3ccccc32)S(=O)(=O)c2ccc(F)cc2)c1 (stereo not given),?,.,10%,.,.,-15%,?,?
CCn1c(=O)c(=O)n(CC)c2cc(S(=O)(=O)Nc3cccc(OC)c3)ccc21,0%,7%,1.4%,-1%,2%,?,5%,-11%
CCC(=O)Nc1ccc(C(=O)CSc2nc3ccc(C)cc3[nH]2)cc1,14%,16%,-1.8%,17%,3%,?,10%,?
COc1cccc(N2CCN(S(=O)(=O)c3c(C)[nH]c(C)c3C(=O)N3CCCC3)CC2)c1,4%[46.1 µM],15%,.,-9%,7%,.,4%,1%[46.1 µM]
O=C(Nc1nncs1)c1ccc2c(c1)OCO2,16%[46.1 µM],-2%,.,-15%,-5%,.,36%[activator],0%[46.1 µM]
CCCCn1c(N)c(N(CCC(C)C)C(=O)CC2OC(=O)c3ccccc32)c(=O)[nH]c1=O (stereo not given),19%,0%,.,2%,.,.,-3%,18%
CC1=C(C(=O)OCc2ccccc2)C(c2cccnc2)c2c(n(C)c(=O)n(C)c2=O)N1 (stereo not given),-5%[46.1 µM],3%,-4.0%,1%&19%,5%,-1%,-8%&24%,1%[46.1 µM]
Cc1ccc2sc(N(CCCN(C)C)C(=O)c3ccc(S(=O)(=O)N4CCCCCC4)cc3)nc2c1C,-13%,-1%,.,-8%,.,.,-23%,?
CC12CC3(C)CC(C)(C1)CC(C(=O)NCc1ccccn1)(C2)C3,.,-1%,.,9%,-6%,.,-7%,.
O=C(Nc1ccc2ccccc2n1)C1CCCCC1,-13%[46.1 µM],-2%,.,-14%,0%,.,27%,?
Cc1ccc2nc(N3CCN(C(=O)C4CC4)CC3)sc2c1,7%[46.1 µM],.,0.6%,.,.,0%,30%[activator],.
COC(=O)COc1cc(Cl)c(C=O)cc1OC,.,-1%,.,2%,-3%,.,-1%,.
O=C(CCc1nc(-c2cccs2)no1)Nc1cccc([N+](=O)[O-])c1,8%[46.1 µM],.,-9.1%,.,.,5%,-15%,1%[46.1 µM]
N#CCCN(C(=O)CN1CCN(S(=O)(=O)c2ccc(Cl)s2)CC1)c1ccc(F)cc1,-11%,2%,.,6%,.,.,-9%,5%
CCOC(=O)c1cnc(SC)nc1Oc1cccc(NC(=O)c2ccc(Cl)cc2)c1,0%,2%,2.8%,34%,-1%,-5%,?,-8%[46.1 µM]
Cc1cc(C)c(S(=O)(=O)Nc2cccc3nsnc23)c(C)c1,10%,-18%,0.3%,-6%,-28%,1%,4%,-10%
COc1cccc(CNC(=O)C2CCN(S(=O)(=O)c3ccc4c(c3)NC(=O)CO4)CC2)c1,1%[46.1 µM],1%,.,6%,-7%,.,-15%,1%[46.1 µM]
N#C/C(=C\c1cn[nH]c1-c1ccc(Cl)cc1)C(=O)NCc1ccccc1,-29%,-8%,-4.5%,-3%,10%,-9%,?,-28%
CC(O)c1nc2ccccc2n1CCOc1ccccc1 (stereo not given),5%,10%,-1.9%,4%,5%,6%,-29%,-7%
Cc1nc2nc(SCc3c(F)cccc3Cl)nn2c(C)c1Cc1ccccc1,?,.,1.0%,.,.,-10%,42%[activator],.
Cc1ccc(-c2cc3nc(C)cc(NCc4ccco4)n3n2)cc1,40%[14.3 µM],-18%,-4.6%,?,-44%,-18%,65%[activator],?
COc1cc(C(=O)ON=C2C3CC4CC(C3)CC2C4)cc(OC)c1OC,.,-11%,.,-13%,-33%,.,?,.
Cc1nn(C)c(C)c1NS(=O)(=O)c1c(C)n[nH]c1C,-2%[46.1 µM],1%,.,1%,.,.,-9%,-1%[46.1 µM]
CCCn1c(SCC(=O)NNC(=O)c2ccc(OC)cc2)nnc1C(C)C,-1%,5%,.,6%,-14%,.,-11%,7%[46.1 µM]
CSc1ccccc1OCc1cc(C(=O)N(C)CCc2c(C)n[nH]c2C)no1,.,2%,.,-3%,-1%,.,-11%,.
O=C(OCCNc1nc(-c2ccccc2)nc2ccccc12)c1ccncc1,.,-2%,.,-11%,-11%,.,-29%,.
CC1(C(=O)NNC(=O)c2ccc(=O)oc2)CC1Br (stereo not given),0%,-1%,.,-8%,4%,.,5%,?
Cc1ccc(NC(=O)CNCC(c2ccccc2)N(C)C)cc1F (stereo not given),.,1%,.,-5%,-2%,.,-21%,.
Cc1ccc(C(=O)NNC(=O)c2csc(N3CCOCC3)n2)o1,4%,2%,.,6%,.,.,-14%,18%
CCCCC1(CCC)C(=O)NC(=S)NC1=O,0%[46.1 µM],.,.,7%,.,.,-10%,-24%[46.1 µM]
Cc1cc(C)n(-c2ccc(C(=O)Nc3ccccc3N3CCOCC3)cc2)n1,-21%,10%,-2.8%,9%,-77%,6%,?,-22%
O=[N+]([O-])c1ccccc1CCc1ccccc1[N+](=O)[O-],-20%[46.1 µM],.,.,-18%,.,.,4%,?
COc1cc(CN(C(=O)c2ccccc2[N+](=O)[O-])c2ccccn2)cc(OC)c1OC,-2%[46.1 µM],.,-3.1%,.,.,12%,-11%,-40%[46.1 µM]
COc1ccccc1C(=O)Nc1ccc2c(c1)n(C)c(=O)n2C,.,-4%,.,3%,-24%,.,17%,.
CN1C2CCC1/C(=C\c1ccccc1)C(=O)/C2=C\c1ccccc1,?,-7%,-1.3%,-27%,-58%,3%,?,15µM*
CC1CCN(CC(=O)Nc2sc3c(c2C#N)CCC3)CC1,-22%,-2%,-8.1%,5%,0%,9%,-3%,4%
C/C(=N/NC(=O)c1ccc(NC(=O)c2ccc(F)cc2)cc1)c1ccccc1,-7%,?,2.6%,-4%,9%,?,-16%,11%
Cn1cc(NC(=O)Nc2ccc(C(F)(F)F)cc2)c(C(F)(F)F)n1,-16%,-1%,.,-1%,-37%,.,-19%,3%[46.1 µM]
O=C1NCCN(Cc2cccc(Oc3ccccc3)c2)C1CC(=O)N1CCCO1 (stereo not given),-2%[46.1 µM],-1%,.,-18%,8%,.,-14%,5%[46.1 µM]
